Screening results: PubChem, National Center for Advancing Translational Sciences (NCATS)
TRPML1 agonist – qHTS for Agonists of the Human Mucolipin Transient Receptor Potential 1 (TRPML1); Mucolipin-1 (Homo sapiens), Q9GZU1; TRPML1-expressing cells, Ca2+ dye fluorescence, FDSS; host cell line not named in the record; reference of the full effect not given here; activation, % (concentration not given with the values); hit rate 0.12% among 410,000; AID 624414, 2012; in the data active = activation above about 50%; inconclusive = about 30% to 50%; inactive = below about 30%; further: 0% is about no effect; the text of the record puts the active cut at 80%
Target sequence (Q9GZU1 whole entry, looked up): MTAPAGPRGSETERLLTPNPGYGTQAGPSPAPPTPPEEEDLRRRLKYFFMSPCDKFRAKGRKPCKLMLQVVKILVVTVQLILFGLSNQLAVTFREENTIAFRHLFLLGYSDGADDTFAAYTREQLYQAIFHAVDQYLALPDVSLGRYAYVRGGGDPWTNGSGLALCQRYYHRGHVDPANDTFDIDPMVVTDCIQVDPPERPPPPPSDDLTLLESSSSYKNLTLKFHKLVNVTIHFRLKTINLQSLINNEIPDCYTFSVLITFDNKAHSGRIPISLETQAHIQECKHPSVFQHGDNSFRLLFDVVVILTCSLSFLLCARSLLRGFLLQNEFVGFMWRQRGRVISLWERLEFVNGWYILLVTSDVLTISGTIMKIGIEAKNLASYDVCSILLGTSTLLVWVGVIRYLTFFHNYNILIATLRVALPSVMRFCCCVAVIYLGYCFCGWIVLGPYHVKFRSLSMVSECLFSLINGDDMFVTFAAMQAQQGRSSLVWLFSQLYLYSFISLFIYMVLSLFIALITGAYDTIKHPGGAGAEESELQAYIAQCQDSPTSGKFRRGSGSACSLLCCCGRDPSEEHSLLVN
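Agonist activity was taken from a 110 s kinetic Ca2+ dye read on the FDSS after pinning compounds onto TRPML1-DL cells. The cells were seeded at 1,500/well with Tet inducer, incubated about 16 h, then dye-loaded at room temperature.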
TRPML1 inh – qHTS for Inhibitors of the Human Mucolipin Transient Receptor Potential 1 (TRPML1); TRPML1-inducible cells, Ca2+ dye fluorescence, FDSS; active compounds read low; inhibition of EC80 agonist-evoked calcium signal; hit rate 0.02% among 390,000; AID 624415, 2012; Mucolipin-1 (Homo sapiens), Q9GZU1; activity change, negative = inhibition, % (test concentration not listed); in the data active means activity change below about -50%; inconclusive means about -30% to -50%; inactive means above about -30%;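 further: stimulus is agonist 54-4 at its EC80 concentration; on the % scale 0 is the no-effect control and ±100 the full control effect; compound concentration not given in the record; the text of the record puts the active cut at -80%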
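Calcium fluorescence in TRPML1-DL cells induced overnight with Tet: a 110 s read after compound pin addition, then a 110 s antagonist read after challenge with 54-4 at 4 uM final (EC80).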
An asterisk follows results filed as active. Some of the compounds tested; rates above refer to the full screens.

compound	TRPML1 agonist	TRPML1 inh
O=S(=O)(NCC(c1ccccc1)N1CCc2ccccc21)c1ccc(Cl)cc1 (stereo not given)	4.7	39
COC(=O)c1sccc1S(=O)(=O)N(CC(=O)Nc1ccc(C)cc1)c1ccccc1	2.2	-14
Cc1ccc(CCNC(=O)c2cc3cc(S(=O)(=O)N4CCCCC4)ccc3n2C)cc1	2.1	3
CCOc1ccc(CCNC(=O)c2cc3c(s2)-c2ccccc2OC3)cc1OCC	1.6	7
CCOC(=O)c1ccccc1NC(=O)c1sc2nc3n(c(=O)c2c1C)CCCCC3	-0.6	-6
CCOC(=O)c1c(Nc2cccc(C)c2)nnc(-c2ccccc2)c1-c1ccccc1	4.8	68
COCCCNC(=O)c1c(NC(=O)c2cc(=O)c3ccccc3o2)sc2c1CCCC2	0.5	9
CC(=O)c1cccc(NC(=O)Cc2ccc(NC(=O)N3CCCCc4ccccc43)cc2)c1	-0.6	36
CC(=O)N1c2ccc(S(=O)(=O)N3CCN(c4cccc(Cl)c4)CC3)cc2CC1C (stereo not given)	2.4	-6
Cc1ccc(S(=O)(=O)N2CCCc3cc(NC(=O)c4ccc(F)c(F)c4)ccc32)cc1	-1.1	38
COc1ccc(N2CCN(C(=O)c3noc4c3CCCCC4)CC2)cc1	-0.1	0
Cc1cc(=O)n(CC(=O)N2CCN(c3ccccc3F)CC2)c2c1c(C)nn2C	-1.2	-15
Cc1cc(C)cc(N2CC(c3nc(-c4ccccc4C)no3)CC2=O)c1 (stereo not given)	2.8	4
COc1ccc(S(=O)(=O)Nc2cccc(-c3ccc(N4CCCC4)nn3)c2)cc1OC	-0.1	7
Cc1ccc(-c2cc(C(=O)Oc3ccccc3Cl)no2)cc1C	-0.1	10

An excerpt of these results, with values under each structure:
Results follow in this order: TRPML1 agonist, TRPML1 inh
COC(=O)c1sccc1S(=O)(=O)N(CC(=O)Nc1ccc(C)cc1)c1ccccc1
→ 2.2, -14
Cc1ccc(CCNC(=O)c2cc3cc(S(=O)(=O)N4CCCCC4)ccc3n2C)cc1
→ 2.1, 3
CCOc1ccc(CCNC(=O)c2cc3c(s2)-c2ccccc2OC3)cc1OCC
→ 1.6, 7
CCOC(=O)c1ccccc1NC(=O)c1sc2nc3n(c(=O)c2c1C)CCCCC3
→ -0.6, -6
CCOC(=O)c1c(Nc2cccc(C)c2)nnc(-c2ccccc2)c1-c1ccccc1
→ 4.8, 68
COCCCNC(=O)c1c(NC(=O)c2cc(=O)c3ccccc3o2)sc2c1CCCC2
→ 0.5, 9
CC(=O)c1cccc(NC(=O)Cc2ccc(NC(=O)N3CCCCc4ccccc43)cc2)c1
→ -0.6, 36
CC(=O)N1c2ccc(S(=O)(=O)N3CCN(c4cccc(Cl)c4)CC3)cc2CC1C (stereo not given)
→ 2.4, -6
Cc1ccc(S(=O)(=O)N2CCCc3cc(NC(=O)c4ccc(F)c(F)c4)ccc32)cc1
→ -1.1, 38
COc1ccc(N2CCN(C(=O)c3noc4c3CCCCC4)CC2)cc1
→ -0.1, 0
Cc1cc(=O)n(CC(=O)N2CCN(c3ccccc3F)CC2)c2c1c(C)nn2C
→ -1.2, -15
Cc1cc(C)cc(N2CC(c3nc(-c4ccccc4C)no3)CC2=O)c1 (stereo not given)
→ 2.8, 4

The list goes on.
compound	TRPML1 agonist	TRPML1 inh
Cc1cccc(NC(=O)c2c(NC(=O)c3cccs3)sc3c2CCC(C)C3)c1 (stereo not given)	1.0	21
O=C(CCn1c(=O)c2cccn2c2ccc(F)cc21)NCCc1ccccc1Cl	3.1	-2
CN(C)CCCNc1cc(N2CCN(C3CCCCC3)CC2)c2noc3c2c1C(=O)c1ccccc1-3	-0.5	-6
COc1cccc(-c2n[nH]c3c2C(c2ccccn2)N(C)C3=O)c1 (stereo not given)	-0.4	7
CC(C)CCOc1ccc(C(=O)NCC2OCCc3ccccc32)cc1 (stereo not given)	5.0	17
COc1ccc(C2CC(c3ccccc3)Oc3cc(C)c(Cl)c(C)c32)cc1 (stereo not given)	0.7	-18
COc1ccc(NC(=O)Cn2c(=O)n(-c3ccc(OC)cc3)c(=O)c3ccc(C(=O)NCc4ccc(C)cc4)cc32)cc1	0.8	-6
Cc1ccc(C)c(NC(=O)CCn2nc(C)c3c(C)n(-c4ccccc4)nc3c2=O)c1	-0.9	-54*
CCOc1ccc(C(=O)Nc2ccc(C(=O)OCc3cc(=O)n4ccsc4n3)cc2)cc1	-0.7	-11
O=C(OCc1ccco1)c1ccc2c(c1)N(Cc1cccc(F)c1)C(=O)c1ccccc1S2	2.2	50
COc1ccc(NC(=O)CCNS(=O)(=O)c2ccc3c(c2)CCCC(=O)N3)cc1	1.4	9
CCOc1ccc(NC(=O)c2ccc3c(c2)CCN3S(=O)(=O)c2ccc(Cl)cc2)cc1	0.1	6
CCC(C)NC(=O)c1ccc2c(c1)N(Cc1ccccc1)C(=O)c1ccccc1S2(=O)=O (stereo not given)	-0.3	-7
CC(C)CC(=O)Nc1nnc2n1CCS2	0.3	4
O=C(CCn1c(=O)c2cccn2c2ccc(F)cc21)NCCc1ccc(Cl)cc1	1.5	10

Later entries.
compound	TRPML1 agonist	TRPML1 inh
CCOC(=O)CSc1nc2ccc(NC(=O)c3ccc(C)cc3)cc2s1	-0.4	14
COc1ccc(C(=O)Nc2ccc3c(c2)CCCN3S(=O)(=O)c2ccc(C)cc2)c(OC)c1	-0.7	26
Cn1cc(S(=O)(=O)c2ccc(Cl)cc2)c(=O)c2cc(F)c(N3CCCCCC3)cc21	-0.3	7
CCOC(=O)C1CCN(c2c(C(=O)c3ccc(C)cc3)cnc3ccc(F)cc23)CC1	0.2	-11
COc1cccc(CNC(=O)c2ccc3c(c2)nc2n3CCCCC2)c1OC	0.3	2
C#CCOc1ccc(-c2nnc(Nc3cccc(C)c3)c3ccccc23)cc1	2.1	30
CCOC(=O)CSc1nnc2n(-c3ccccc3)c(=O)c3c4c(sc3n12)CC(C(C)(C)C)CC4 (stereo not given)	-0.5	24
CC(CNC(=O)C1CCN(S(=O)(=O)c2ccc3c(ccn3C)c2)CC1)c1ccccc1 (stereo not given)	1.7	1
CCCCNC(=O)C1CCCN(c2nnc(C)c3c(C)n(-c4ccc(Cl)cc4)nc23)C1 (stereo not given)	2.8	38
COc1ccccc1CNC(=O)c1c(O)nc2cc(C)ccn2c1=O	-0.3	15
COc1cccc(NC(=O)c2ccc(-c3nc(COc4ccc(C)cc4)c(C)o3)cc2)c1	0.2	-11
CCOc1ccc(-c2cc(C(=O)N3CCN(c4cccc(C(F)(F)F)c4)CC3)c3ccccc3n2)cc1	0.4	-12
O=C(NCc1ccc(Cl)cc1)c1ccc(CNS(=O)(=O)c2ccc(F)cc2)cc1	1.7	3
CCOc1ccc(NC(=O)CN2C(=O)CC(C)Sc3ccccc32)cc1 (stereo not given)	4.7	5
CCc1ccc(-n2nc3ccc(NC(=O)COc4ccc(OC)cc4)cc3n2)cc1	0.0	23

Later entries.
compound	TRPML1 agonist	TRPML1 inh
COc1ccc(-c2cc(C(=O)NCCc3ccc(Cl)cc3)[nH]n2)cc1	-0.7	-5
COc1cc(C(CC(=O)Nc2cccc(C(C)=O)c2)N2Cc3ccccc3C2=O)cc(OC)c1OC (stereo not given)	3.3	-13
CCOC(=O)N1CCc2c(sc(NCc3ccc(N(CC)CC)cc3)c2C(=O)Nc2cc(OC)ccc2OC)C1	0.8	-21
CCOc1ccccc1CNC(=O)CCc1c(C)nn(-c2ccc(N3CCCC3)nn2)c1C	0.9	8
CCCSc1nc(-c2ccc(OC)cc2)cc(-c2ccccc2OC)c1C#N	0.0	15
COc1ccc(-n2nc(C(=O)N3CCCCC3)c3c4ccccc4n(C)c3c2=O)cc1Cl	-0.5	1
Cc1[nH]c2ccccc2c1C1N2CC3(C)CN1CC(C)(C2)C3=O (stereo not given)	0.3	18
Cc1cc(Nc2cc(F)ccc2C)nc(-n2nc(C)cc2C)n1	0.8	-1
COC(=O)c1ccc(NC(=O)CCCC(=O)OCC(=O)c2ccc(Cl)cc2)cc1	1.3	9
Cc1sc2ncn(CC(=O)Nc3ccc(C(C)C)cc3)c(=O)c2c1S(=O)(=O)N1CCN(c2ncccn2)CC1	-0.7	1
COc1ccc(OCc2nc3ccccc3n2C(C)c2ccccc2)cc1 (stereo not given)	-0.5	3
Cc1ccc2cccc(NC(=O)c3ccc(-c4cc(Cl)ccc4Cl)o3)c2n1	0.6	8
Brc1cccc(-c2nnn3c2nc(NCc2ccc4c(c2)OCO4)c2ccccc23)c1	-0.8	1
COc1ccc(OC)c(/C=C(/C#N)c2nc(-c3ccc(-c4ccccc4)cc3)cs2)c1	1.3	14
Fc1ccc(-c2cc(-c3nc(-c4ccccc4)no3)[nH]n2)cc1	0.1	-9

Other results:
compound	TRPML1 agonist	TRPML1 inh
Cc1nc(-c2ccc(S(=O)(=O)N3CCN(c4cc(Cl)ccc4C)CC3)cc2)co1	3.2	18
CCOc1ccccc1CNc1ncnc2c1nc1n2CCCC1	2.5	30
CCCCOc1ccc(-c2cc3c(=O)n(CC(=O)Nc4ccc(Cl)cc4Cl)ccn3n2)cc1	-0.3	-12
Cc1ccc(CNC(=O)CN2C(=O)CCn3nc(-c4ccccc4)cc32)cc1	-0.5	8
COc1ccccc1OCCn1c(-c2ccc(Cl)cc2)nc2ccccc2c1=O	0.2	-3
COC(=O)c1ccc(NC(=O)C2CCN(c3ncnc4c3nc3n4CCCCC3)CC2)cc1	1.7	41
CCc1ccc(N(CC)C(=O)Cn2cnc3sc(C)c(S(=O)(=O)N4CCN(c5ncccn5)CC4)c3c2=O)cc1	-0.5	0
O=C(CC(c1cccs1)N1Cc2ccccc2C1=O)Nc1ccc(F)cc1F (stereo not given)	1.0	7
CCc1cccc(NC(=O)CCc2c(C)nc3c(-c4ccccc4)c(C)nn3c2C)c1	0.6	-11
Nc1nc(N)c(S(=O)(=O)c2ccccc2)c(Nc2ccccc2)n1	1.8	4
Cc1cccc(-n2c(SCC(=O)c3ccccc3)nnc2-c2ccc(Br)cc2)c1	3.5	27
COC(=O)c1c(NC(=O)c2cc(=O)c3c(C)cc(C)cc3o2)sc2c1CCCC2	1.9	-16
Cc1c(CCNC(=O)Cc2ccc(F)cc2)sc2nc(-c3ccc(F)cc3)nn12	2.1	13
Cc1cccc(CCNC(=O)c2nc(-c3ccc(Cl)cc3)n3c2CCCCC3)c1	-0.1	-4
Cc1ccc(NC(=O)CSc2ncnc3c2sc2ccccc23)cc1C	2.3	-7

New compounds follow
compound	TRPML1 agonist	TRPML1 inh
Cc1cc(F)ccc1NC(=O)C1CCCN(C(=O)c2cnn(-c3ccccc3)c2-n2cccc2)C1 (stereo not given)	0.6	-10
COc1cccc(NC(=O)Cn2c(=O)n(CC(=O)NCc3ccc(C)cc3)c(=O)c3sccc32)c1	0.0	-7
CCOC(=O)C1CCN(C(c2ccccc2OC)c2c(O)cc(C)n(CCOC)c2=O)CC1 (stereo not given)	1.6	-1
COc1ccc(C2c3cc(OC)c(OC)cc3CC(=O)N2c2ccc(C)cc2)cc1 (stereo not given)	-1.0	-13
Cc1ccccc1NC(=O)Cn1c(=O)n(CC2CCC(C(=O)NCCc3ccccc3)CC2)c(=O)c2ccccc21 (stereo not given)	0.1	-15
CCCCN1CCc2nc(N3CCN(C)CC3)ncc2C1	1.6	-22
CCOCCCNC(=O)c1c[nH]c2ccc(S(=O)(=O)N(C)c3ccc(Cl)cc3F)cc2c1=O	0.6	-4
Cc1ccccc1CNC(=O)c1ccc(CN2CC(=O)N3CCCCC3C2=O)cc1 (stereo not given)	0.1	3
CCOCCCn1c(=N)c(C(=O)NCc2cccnc2)cc2c(=O)n3cc(C)ccc3nc21	-0.7	14
CCc1ccc(OCC(=O)Nc2cc(-c3nc4cc(C)ccc4o3)ccc2C)cc1	3.2	13
COc1ccc(C(=O)N2CCc3cc(OC)c(OC)cc3C2COc2ccccc2OC)cc1 (stereo not given)	3.5	15
CSc1ncc2c(n1)-c1ccccc1N(Cc1ccccc1)S2(=O)=O	2.5	5
CCCC(=O)C1=C(c2ccc(C)c(C)c2)N(C(=O)CCC)n2c(CC)nnc2S1	2.1	-14
CCn1c2c(c(=O)n3ncc(C(=O)Nc4cccc(Cl)c4C)c13)CN(Cc1ccc(OC)cc1)CC2	1.7	-6
Cc1cccc(C(=O)Nc2nnc(S(=O)(=O)N(C)Cc3ccccc3)s2)c1	1.1	5

(continued)
compound	TRPML1 agonist	TRPML1 inh
COc1ccc(OC)c(NC2=C(c3ccccc3)C(=O)c3ccccc32)c1	1.3	-12
Cc1ccc(Cc2cn3cc(-c4ccc(F)cc4)nc3s2)cc1	1.1	-14
CCOC(=O)c1c(NC(=O)CSc2cn(CCNC(=O)c3ccccc3OC)c3ccccc23)sc2c1CCC2	0.8	0
CCC(C)NC(=O)c1[nH]c2cc(C)ccc2c1Sc1ccc(Cl)cc1 (stereo not given)	1.2	4
CCC(Oc1ccccc1)C(=O)N1CCN(Cc2cc(=O)n3nc(-c4cccc(C)c4)sc3n2)CC1 (stereo not given)	0.9	-6
